# HCMV NEC inh: cytomegalovirus nuclear egress complex inhibition. inhibition, % (test concentration not listed). HTRF UL50-UL53 interaction, normalized percent inhibition. actives 0.15% (n = 190,000). AID 1918969;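 active means both replicates at 50% or more, plus weaker picks with an unusually low signal ratio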;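 further: stock transfer was 100 nL into about 20 µL; 0% = negative control wells and 100% = wells with untagged competitor protein; inactives centre near -12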
# Sa growth 42C: S. aureus growth inhibition | actives 0.53% (n = 170,000) | AID 720641 | relative growth, % (no concentration beside the values) | S. aureus RN4220 growth, OD600, 20 h, 42 °C; stronger effect = lower value;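 active means growth at 42 °C up to 50% and 20 or more points under that at 30 °C, or under 10% at both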;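 further: 300 nL library stock went into each well; scaled to the means of positive and negative controls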
# GIV Gai3 FP: GIV-Galpha-i interaction inhibition; AID 1224905; actives 0.42% (n = 210,000); percent of control (FP), % (test concentration not listed); Galpha-i3/FITC-GIV peptide fluorescence polarization, 90 min; stronger effect = lower value; scaled: aluminum fluoride 0%, vehicle 100%;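 active means replicate mean at 85% of control or lower, very high polarization wells dropped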;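 further: wells of about 15 µL received 100 nL stock; the first replicate is given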
# Target sequence (P08753 whole entry, looked up): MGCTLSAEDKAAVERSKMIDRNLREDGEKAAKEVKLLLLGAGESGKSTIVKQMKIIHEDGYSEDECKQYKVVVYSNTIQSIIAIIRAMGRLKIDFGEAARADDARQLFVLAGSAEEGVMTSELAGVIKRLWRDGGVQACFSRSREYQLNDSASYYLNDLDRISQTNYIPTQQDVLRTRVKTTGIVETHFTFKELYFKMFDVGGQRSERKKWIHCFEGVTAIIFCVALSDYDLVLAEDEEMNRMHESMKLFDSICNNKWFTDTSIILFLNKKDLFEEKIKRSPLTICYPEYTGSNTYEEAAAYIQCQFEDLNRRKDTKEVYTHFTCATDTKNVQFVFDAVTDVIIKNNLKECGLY
# Sa growth 42C second temp: also measured in Sa growth 42C; calls as there; relative growth, %; measured here: growth at 30 °C;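 optical density after 20 h as mean of two plates; 100% = untreated growth and lower means inhibition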
# * = called active by the depositor; x = no result given.
SMILES,HCMV NEC inh,Sa growth 42C,Sa growth 42C second temp,GIV Gai3 FP
CCOC(=O)C1CCCN(C(=O)CSc2ccc(NC(C)=O)cc2)C1 (stereo unspecified),1,88,95,x
N#CCCS(=O)(=O)c1nnnn1-c1ccccc1,2,71,58,x
N#Cc1ccc(OCc2noc(-c3ccsc3)n2)cc1,16,103,107,102
CCOc1ccc(OCC)c(NC(=O)C(NS(=O)(=O)c2cccs2)c2ccccc2)c1 (stereo unspecified),-6,107,85,108
CCOC(=O)c1ccccc1NC(=O)COC,14,80,100,98
O=C1/C(=C/c2cccs2)COc2ccccc21,-50,87,66,x
Cn1c(C(=O)N2CCC(C(=O)N3CCN(c4ccccc4)CC3)CC2)cc2sccc21,-13,112,90,97
O=c1oc2ccccc2c(O)c1CN1CCCC1,-14,86,30,x
CCN(C)C(=O)/C=C/c1cnc2ccccc2c1,-52,x,x,100
Cc1ccc(NC(=O)CSc2nnc(-c3cc4occc4n3C)n2-c2ccccc2C)c(C)c1,x,106,86,104

# Single records, from the list above. Values in the order: HCMV NEC inh | Sa growth 42C | Sa growth 42C second temp | GIV Gai3 FP
# O=c1oc2ccccc2c(O)c1CN1CCCC1 as listed: -14 | 86 | 30 | x
# CCOC(=O)C1CCCN(C(=O)CSc2ccc(NC(C)=O)cc2)C1 (stereo unspecified) as listed: 1 | 88 | 95 | x
# Cc1ccc(NC(=O)CSc2nnc(-c3cc4occc4n3C)n2-c2ccccc2C)c(C)c1 as listed: x | 106 | 86 | 104

# Taken from above:
# Sa growth 42C, N#Cc1ccc(OCc2noc(-c3ccsc3)n2)cc1 stands at 103
# HCMV NEC inh, Cn1c(C(=O)N2CCC(C(=O)N3CCN(c4ccccc4)CC3)CC2)cc2sccc21 stands at -13
# Sa growth 42C second temp, CCOC(=O)c1ccccc1NC(=O)COC stands at 100
# Sa growth 42C second temp, CCOc1ccc(OCC)c(NC(=O)C(NS(=O)(=O)c2cccs2)c2ccccc2)c1 (stereo unspecified) stands at 85
# HCMV NEC inh, CCN(C)C(=O)/C=C/c1cnc2ccccc2c1 stands at -52
# Sa growth 42C second temp, N#CCCS(=O)(=O)c1nnnn1-c1ccccc1 stands at 58

# (further entries)
SMILES,HCMV NEC inh,Sa growth 42C,Sa growth 42C second temp,GIV Gai3 FP
CCC(=O)n1nc(-c2ccccc2C)nc1N,-22,x,x,101
NC(=O)c1ccc(NC(=O)COc2ccc(F)cc2Cl)cc1,-20,93,97,x
COc1ccc(CCNC(=O)Cc2csc3nc(-c4ccccc4)cn23)cc1OC,-14,x,x,105
CCc1ccc(-n2c(=O)c3cccnc3n2CC(=O)Nc2ccc(C)cc2Cl)cc1,-20,x,x,104
COc1ccc(N2CCN(C(=O)C3CCN(S(=O)(=O)c4cccs4)CC3)CC2)cc1,10,101,107,110
COc1cccc(N(C)C(=O)/C=C/c2ccc(F)cc2)n1,4,110,108,x
CC(C)c1cc(C(=O)N2CCCCC2)no1,-20,x,x,101
CCN1C(=O)c2cccc3c(S(=O)(=O)N4CCCCCC4)ccc1c23,-54,86,83,105
Cc1onc(-c2ccccc2)c1C(=O)Nc1sccc1C#N,-7,99,82,x
CCOc1ccc(-c2noc(CN3C(=O)COc4cc(C(C)(C)C)ccc43)n2)cc1,1,x,x,102
O=S(=O)(c1ccc(F)cc1)N(Cc1nc(-c2ccccc2)no1)C1CCCCC1,-11,104,88,108
Cc1ccc(C2CCN(C(=O)Nc3ccc(Cl)cc3)C2)cc1 (stereo unspecified),x,99,76,99
N#Cc1c2ccc(O)cc2n2ccccc12,-41,107,81,x
O=C(CSc1nnc(-c2ccc(Cl)cc2)o1)N1CCCC1c1ccc2c(c1)OCCCO2 (stereo unspecified),-4,82,82,x
O=C(Nc1ccc2c(c1)OCCO2)N1CCCC1c1ccccc1F (stereo unspecified),-9,x,x,97
CC(Cc1cccs1)NS(=O)(=O)c1ccccc1 (stereo unspecified),-5,80,91,x
Cc1cccc2c1-c1sc(C(=O)NCc3ccc(Cl)cc3)cc1CO2,-28,113,85,101
CCOC(=O)c1ccc(NC(=O)C2CC(=O)N(C)C(=Nc3ccc(F)cc3)S2)cc1 (stereo unspecified),-19,x,x,103
O=c1oc2ccccc2n1Cc1noc(-c2ccsc2)n1,-26,x,x,112
O=C1Nc2ccccc2C12OCCCO2,-27,92,87,104
CCCn1c(C)cc(/C=C(\C#N)C(=O)N2CCN(S(=O)(=O)c3ccccc3C(F)(F)F)CC2)c1C,8,108,101,x
CCOC(=O)c1c(NC(=O)CCc2ccccc2)sc(C(=O)Nc2cc(C(F)(F)F)ccc2Cl)c1C,-24,x,x,96
Cn1c(SCc2ccc(C(F)(F)F)cc2)nnc1C(F)(F)F,-16,93,98,116
C=CCN=C(SCc1ccccc1)N1CCCC1,2,101,88,x
CC1CCCN(C(=O)c2cc3c(Cl)nc4ccccc4c3s2)C1 (stereo unspecified),-8,101,81,106
COc1ccc(-c2nc(CCNC(=O)C(C)Oc3ccc(C(C)(C)C)cc3)cs2)cc1 (stereo unspecified),-16,x,x,94
Cc1cccc(-c2noc(-c3scc(-c4cccc(C)c4)c3-n3cccc3)n2)c1,-22,x,x,101
C=CCN=c1sc(C(=O)OC)cc(=O)n1CC=C,-17,105,75,97
O=C(COc1ccccc1F)Nc1ccc(C(=O)OCc2cc(=O)n3nc(C4CC4)sc3n2)cc1,x,84,96,104
COc1ccccc1-c1nnc(-c2cccs2)o1,-27,88,56,x
Cn1cnc2cc(NCc3ccc(Br)cc3)ccc21,-12,110,51,97
COc1ccc(-c2nc3cc(NC(=O)CSc4ccc(C)cc4)ccc3o2)cc1,-8,101,83,104
Nn1cc(-c2ccccc2)nc1SCC(=O)Nc1cccc2nsnc12,-63,90,90,x
CCN(CC)C(=O)c1csc(Nc2ccc(C)cc2)n1,-5,151,81,103
CC1=C(O)C(=O)/C(=C/N(C)C)C1,-40,88,88,107
Cc1noc(C)c1CSCC(=O)Nc1nc(SCc2ccc(Cl)cc2)n[nH]1,-3,92,73,x
O=c1cc(CSc2nnc(COc3ccc(Cl)cc3)n2Cc2ccco2)nc2ccc(Br)cn12,8,85,91,x
Cc1ccc(-c2nc3nc(C)cc(N(CCO)CCO)n3n2)cc1,-2,x,x,108
CN(C)c1cccc(C(=O)Oc2ccccc2Cl)c1,-20,95,98,x
CSc1nc(-c2ccccc2)c(C#N)c(N2CCCC2)n1,14,103,90,100

# 7 compounds from above, showing only GIV Gai3 FP and Sa growth 42C:
molecule	GIV Gai3 FP	Sa growth 42C
COc1ccc(-c2nc3cc(NC(=O)CSc4ccc(C)cc4)ccc3o2)cc1	104	101
Nn1cc(-c2ccccc2)nc1SCC(=O)Nc1cccc2nsnc12	x	90
CCN(CC)C(=O)c1csc(Nc2ccc(C)cc2)n1	103	151
CC1=C(O)C(=O)/C(=C/N(C)C)C1	107	88
Cc1noc(C)c1CSCC(=O)Nc1nc(SCc2ccc(Cl)cc2)n[nH]1	x	92
O=c1cc(CSc2nnc(COc3ccc(Cl)cc3)n2Cc2ccco2)nc2ccc(Br)cn12	x	85
Cc1ccc(-c2nc3nc(C)cc(N(CCO)CCO)n3n2)cc1	108	x

# Part of the list above in order of formula weight, low to high.
SMILES,HCMV NEC inh,Sa growth 42C,Sa growth 42C second temp,GIV Gai3 FP
CSc1nc(-c2ccccc2)c(C#N)c(N2CCCC2)n1,14,103,90,100
COc1ccc(-c2nc3cc(NC(=O)CSc4ccc(C)cc4)ccc3o2)cc1,-8,101,83,104
Cc1noc(C)c1CSCC(=O)Nc1nc(SCc2ccc(Cl)cc2)n[nH]1,-3,92,73,x

# Continuation:
SMILES,HCMV NEC inh,Sa growth 42C,Sa growth 42C second temp,GIV Gai3 FP
O=C(CCC1=NS(=O)(=O)c2ccccc2N1)N1CCN(c2ccccc2F)CC1,-2,x,x,107
Cc1nc(-n2nc(C)c(Cc3ccccc3)c2C)sc1C(=O)N1CCOCC1,-4,x,x,99
CC(Sc1nnc(Nc2ccccc2F)s1)C(=O)N1CCc2ccccc21 (stereo unspecified),8,124,88,x
CCn1c(=O)c(N2CCC(C(=O)NCCc3ccc(S(N)(=O)=O)cc3)CC2)nc2ccccc21,-33,x,x,105
COc1ccc(N(CC(=O)N2CCN(c3ccccc3F)CC2)S(=O)(=O)c2c(C)noc2C)cc1,-12,72,100,110
N#C/C(=C(/O)c1ccco1)c1nc2ccccc2s1,-9,99,46,132
CCCNC(=O)c1c(C)c(C(=O)OCC)n(CC)c1C,-12,95,90,100
Cc1cc(NC(=O)CC2CCCCC2)n(-c2ncnc3c2cnn3-c2ccc(F)cc2)n1,13,x,x,104
S=C(SCc1ncon1)N1CCCC1,6,98,67,100
COc1ccc2cc3c(N)nn(C(=O)Cc4c(F)cccc4Cl)c3nc2c1,x,91,84,108
CCC(Sc1nc2ncccc2o1)C(=O)Nc1ccc(OC)c(OC)c1 (stereo unspecified),x,92,87,99
O=C(OCc1ccc(Cl)cc1)c1cccs1,-6,103,105,99
COc1ccc(-c2nn(C)c3sc(C(=O)N4CCN(c5cccc(Cl)c5)CC4)cc23)cc1OC,-33,111,78,104
COc1ccc(CC2C(=O)Nc3ccccc32)cc1 (stereo unspecified),-16,x,x,99
Cc1ccc(C(=O)N(Cc2ccco2)Cc2ccco2)cc1,-29,98,81,103
CN(C)C(=S)Nc1ccccc1,-38,91,87,108
CCCc1nc2nc[nH]n2c(=O)c1NC(=O)Nc1ccc2c(c1)OCCO2,-4,x,x,107
C=C(C)CC1C(=O)NN=C1C (stereo unspecified),-28,90,86,99
CSc1nsc(SC)c1NC(=O)OCCc1ccccn1,0,88,81,98
O=c1[nH]c2ccccc2nc1NC(=S)Nc1ccccc1,-35,155,104,x
Cc1ccc(-n2c(-c3ccc(Cl)cc3)cn3c4c(=O)n(C)c(=O)n(C)c4nc23)cc1N,-34,x,x,102
O=C(N/N=C/c1c[nH]c2ccccc12)c1cccc(O)c1,-31,94,88,97
BrCCOc1cccc(Br)c1,-5,120,92,x
Cc1cccc(C(=O)Nc2ccc(NC(=O)c3ccco3)cc2)c1,x,138,74,101
O=C(NCc1ccccc1F)C1CCN(c2nnc(-n3cccc3)s2)CC1,x,88,90,98
CC1=C(C(=O)N2CCOCC2)C(c2ccc(C(F)(F)F)cc2)C2=C(CCCC2=O)N1 (stereo unspecified),-4,92,90,x
CC(C)n1c(NCc2ccccc2O)nc2ccccc21,-7,100,63,113
COc1cccc(CNC(=O)Cn2c(=O)n(CCCCC(=O)NC(C)C)c(=O)c3ccccc32)c1OC,-14,x,x,109
CCOc1ccc(NC(=O)N2CCOc3ccc(Cl)cc32)cc1,6,x,x,102
CC(C)(C)c1ccc(C(CNC(=O)c2cc(=O)c3cc(Br)ccc3o2)N2CCCC2)cc1 (stereo unspecified),-17,x,x,110
CCOc1ccc(CN2CCc3nc(N4CCN(c5ccccn5)CC4)ncc3C2)cc1OC,x,100,97,114
CC(C)(C)NS(=O)(=O)c1ccc(N2CCCC2=O)cc1Cl,-20,97,86,102
CCOC(=O)c1c(NC(=O)c2ccc3c(c2)CC(c2ccccc2)OC3=O)sc(C)c1C (stereo unspecified),-18,x,x,104
Cn1c(=NC(=O)c2cccc(OC(F)F)c2)sc2ccccc21,0,92,98,x
CCOC(=O)N1CCN(CCC(=O)Nc2cccc(F)c2)CC1,-9,100,96,103
CC(C)(C)c1ccc(OCC(=O)n2ncc(C#N)c2N)c(C(C)(C)C)c1,2,97,99,98
O=C(Nc1ccc2nc3n(c(=O)c2c1)CCCC3)c1cc2ccccc2[nH]1,-15,x,x,102
O=C(c1cc2nc(-c3ccccc3)cc(C(F)(F)F)n2n1)N1N=C(C(F)F)CC1(O)C(F)F (stereo unspecified),-40,93,84,100
Cc1ccccc1OCc1nc2ccccc2c(=O)n1/N=C/c1ccco1,4,107,92,x
Cc1cccc(-n2c(N)cc(=O)nc2SCC(=O)NC2CCCCC2)c1,-9,97,98,107
Cc1ccc(-c2nonc2NC(=O)C(C)Oc2ccc(Cl)c(C)c2)cc1C (stereo unspecified),19,x,x,100
CC1=C(C(=O)Nc2ccccc2)C(CC(C)C)n2ncc(C(=O)Nc3ccccc3)c2N1 (stereo unspecified),x,104,85,100

# From PubChem BioAssay
